VACV E9 pol inh = blocks vaccinia virus processive DNA synthesis. in vitro processive DNA synthesis, absorbance read-out; stronger effect = lower value; some inactives read as strong as hits. normalized absorbance, % (no concentration beside the values). AID 493162. 46,000 compounds, 0.94% hits;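 active means replicate mean up to 90% and picked by the depositor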;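 further: 100% = median of the test wells of a plate; 100 nL library stock went into each well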
* = called active by the depositor.

molecule,VACV E9 pol inh
O=[n+]1cc(-c2ccccc2)n([O-])c2c1CCCC2,100.0
COc1ccccc1C1=NOC(C(=O)O)C1 (stereo unspecified),88.8
CN(C)/N=C(\Cn1nnc(N2CCCC2)n1)c1ccc(Cl)cc1,92.1
N#Cc1c(-c2ccccc2)cc(-c2cccs2)nc1SCS(=O)Cc1ccccc1 (stereo unspecified),99.8
Cc1nc(C(F)(F)F)c(C(N)=O)s1,117.7
CC1CC(C)CN(C(=O)c2ccc(NC(=O)c3ccc(=O)[nH]c3)cc2)C1 (stereo unspecified),113.0
CCS(=O)(=O)c1ccc(NC(=O)c2ccccc2)c(O)c1,100.6
CCOc1ccc(Br)cc1S(=O)(=O)n1cnc2ccccc21,90.5
O=C1CSC(c2ccccc2)N1c1ccc(Cl)cc1 (stereo unspecified),102.8
C=CCOC(=O)C1=C(C)Nc2[nH]c(=O)[nH]c(=O)c2C1c1ccc(O)cc1 (stereo unspecified),100.4
COc1cccc2sc(NN)nc12,107.8
Cc1cc(Br)ccc1OCC(=O)O,100.2
COC(=O)c1cc(C(=O)c2ccc(Cl)cc2Cl)cn1C,76.7
NNC(=O)c1cncc(C#Cc2ccccc2)c1,102.3
Cc1cc(C(=O)NCc2cccnc2)no1,100.7
COc1ccc(-c2cc(C(=O)NCCc3ccccc3)c3ccccc3n2)cc1,104.9
CN(CCNC(=O)Cn1ncc2c1-c1ccccc1OC2)C1CCCCC1,104.4
Cc1c(O)ccc2c(-c3ccccc3)cc(=O)oc12,100.0
O=C(O)CCCN1CC=C(c2ccccc2)CC1,101.0
C=CCON1C(=O)CN(C(=O)Nc2ccccc2)C1c1ccccc1 (stereo unspecified),98.9
Cc1ccc(-c2c[n+](-c3c4n(n(-c5ccccc5)c3=O)CCCCC4)c(C)n2C)cc1,99.7
CCc1ccc(NC(=O)CSC2=NN3CCCC(=O)N=C3S2)cc1,100.9
O=C(NCCN1CCN(c2cccc(Cl)c2)CC1)Nc1ccc(Cl)cc1,75.5
CC(C)(CCO)NC(=S)NC1CC2C=CC1C2 (stereo unspecified),104.5
Cc1ccc(S(=O)(=O)Nc2ccc3c(c2)COC3=O)c(C)c1,98.9
Cc1ccc(S(=O)(=O)CC(=O)c2ccccc2)cc1,99.6
CCSc1n[nH]c(-c2c(Cl)c(CC)nn2C)n1,100.1
O=C(NCCOc1ccc(Cl)cc1)c1ccco1,100.6
O=C(C(NS(=O)(=O)c1cccs1)c1ccccc1)N1CCN(c2cccc(Cl)c2)CC1 (stereo unspecified),102.1
N#Cc1cc2c(=O)n3ccccc3nc2n(Cc2ccccc2)c1=O,88.8
CCOC(=O)c1ccc(NC(=O)COc2ccccc2F)cc1,104.9
C/C(=N/O)c1ccc(Br)cc1,99.8
CC1CN(Cc2c(O)ccc3c2oc(=O)c2ccccc23)CC(C)O1 (stereo unspecified),99.8
Cc1cc2c(c(=O)n1Cc1ccccn1)C(c1ccccc1)C(C#N)=C(N)O2 (stereo unspecified),98.0
O=c1c2ccccc2n2cnnc2n1-c1ccccc1,99.6
Cc1cc(C)cc(NC(=O)CC(C(=O)O)N(C)C)c1 (stereo unspecified),82.6
CN(C(=O)C1CCCCC1)c1nc(-c2ccc(Cl)s2)cs1,109.7
O=C(Nc1cccc(-c2nc3ccccc3o2)c1)c1ccc(Br)cc1,100.9
CNC(=O)CN1C(=O)c2ccccc2S1(=O)=O,99.6
CCc1ccc(Oc2coc3cc(OC(C)C(=O)OC(C)C)ccc3c2=O)cc1 (stereo unspecified),100.7
C=CCNC(=O)C1=CC(c2ccc(OC)cc2)=NS(=O)(=O)N1C,90.0
N#Cc1ccccc1N=C/C(Br)=C/c1ccccc1,92.5
NS(=O)(=O)c1ccc(S(=O)(=O)NCC(=O)c2ccccc2)cc1,102.0
COc1ccc(C2=NN3C(C2)c2cccc(OC)c2OC3(C)C)cc1 (stereo unspecified),103.6
NC(=S)c1ccc(-c2cccs2)s1,97.0
O=C(Nc1ccc(F)cc1F)NC1CC(=O)N(Cc2ccccc2)C1 (stereo unspecified),100.9
CC(C)NS(=O)(=O)c1ccc(N2C(=O)CC3(CCCC3)C2=O)c(Cl)c1,96.2
Cc1ccc2nc(NCCN3CCOCC3)c3nncn3c2c1,101.7
CC(=O)Nc1ccc(S(=O)(=O)NCc2ccccn2)cc1,88.1
CN(C)C(=O)CSc1nc(-c2ccccc2)nc2c1CCCC2,90.8
O=C(Nc1ccc(N2CCOCC2)cc1)c1cccnc1,90.0
CC1CCCCN1CCCNC(=O)c1cc2c(s1)-c1ccc(Cl)cc1SC2 (stereo unspecified),69.1*
CCNC(=O)CC1C(=O)N(c2ccccc2)C(=O)N1Cc1ccc(OC)cc1 (stereo unspecified),101.4
CCC(NC(=O)c1ccccc1NC(=O)c1ccccc1)C(=O)N1CCCC1 (stereo unspecified),103.6
C(=N\N1CCN(Cc2cccc3ccccc23)CC1)/c1ccncc1,100.0
NC(N)=Nc1nc2ccccc2o1,97.3
COC(=O)c1cccc(NC(=O)Nc2ccccc2)c1,106.1
O=C(Nc1ccccc1)c1cc2ccccc2c(=O)s1,99.4
CC(O)(C(=O)Nc1ccccc1)C(F)(F)F (stereo unspecified) (tested in a mixture with another compound),98.2
CCOC(=O)C1C(=O)C=C(c2ccc3ccccc3c2)CC1c1ccc(C(F)(F)F)cc1 (stereo unspecified),99.9

Continued.
molecule,VACV E9 pol inh
O=S(=O)(N=C1SCCS1)c1ccccc1,96.1
COc1cc(C(F)(F)F)nc2ccc(C#CCOC(=O)Nc3ccccc3)cc12,103.4
CC1CCN(S(=O)(=O)c2ccc(C(=O)NC34CC5CC(CC(C5)C3)C4)cc2)CC1,99.5
N#Cc1c(C(F)(F)F)cc(C23CC4CC(CC(C4)C2)C3)nc1SCCC(=O)O,98.7
CC(=O)Nc1cccc(-n2nnc(SCC(=O)c3ccccc3)n2)c1,103.0
COc1ccc(-n2nc3c(c2NC(C)=O)CS(=O)C3)cc1 (stereo unspecified),94.8
O=C(COC(=O)C1CC2C=CC1C2)NCc1ccc(F)cc1 (stereo unspecified),95.3
COc1ccc(NC(=O)c2sc(SC)nc2N)cc1,100.4
O=C(COc1ccccc1)Nc1ccccc1Cl,98.8
Cc1ccc2c(c1)NC(CN=C(N)N)CC2 (stereo unspecified),99.0
CCOC(=O)c1cc[nH]c1C,99.7
CC1=CC(C)(C)Nc2ccc(OC(=O)Cc3ccccc3)cc21,108.8
CCOC(=O)c1c(-c2ccccc2)c2oc3ccccc3c2[nH]c1=O,98.9
COC(=O)c1cccc(-c2ccc(C=C3C(=O)OC(c4ccccc4)OC3=O)o2)c1 (stereo unspecified),100.0
CC(=O)NCCc1ccc(S(=O)(=O)N(C)C)cc1,100.0
O=C(COC(=O)c1cccs1)NCc1ccccc1,102.2
Cc1cccc(OCC(O)CN2CCc3ccccc3C2)c1 (stereo unspecified),83.8
COc1ccc(Cc2nnc(SCC(=O)NC(C)C)n2-c2ccc(F)cc2)cc1OC,100.6
Cc1ccc(Nc2nc(SCc3ccccc3)nnc2C)cc1,102.8
COC(=O)CCC(=O)Nc1ccc(-c2nc3ccc(C)cc3s2)cc1,74.4
N#Cc1c(N)nc2c(c1-c1ccc(Br)s1)CCCC2,100.1
CC(C)C(=O)Nc1nnc(C23CC4CC(CC(C4)C2)C3)s1,101.4
CSc1ncnc2sc3c(c12)CCCC3,95.6
CNC(=S)N1N=C2c3ccccc3CCC2C1c1ccc(OC)cc1 (stereo unspecified),86.5
Cc1nc(C(F)(F)F)c(-c2ncn(-c3ccccc3)n2)s1,102.3
Cc1ccc(NC(=O)CSc2nc3c(cc2C#N)C(=O)CC(C)(C)C3)cc1,102.0
CCOc1ccc(C(=O)Nc2sc3c(c2C(N)=O)CCC3)cc1,94.8
COc1ccc(C(=O)N2CCN(c3ncnc4cc(-c5ccccc5)sc34)CC2)cc1OC,93.1
O=C(c1ccc(Cl)cc1)N1CCCc2ccccc21,100.6
FC(F)(F)C1(C(F)(F)F)N=C(c2ccccc2)NC(c2ccccc2)=N1,100.4

Some values from the list:
In VACV E9 pol inh, O=C(COc1ccccc1)Nc1ccccc1Cl reads 98.8
In VACV E9 pol inh, FC(F)(F)C1(C(F)(F)F)N=C(c2ccccc2)NC(c2ccccc2)=N1 reads 100.4

(more compounds)
molecule,VACV E9 pol inh
CSc1ccc(-c2nc(SCC(=O)NCc3ccco3)c(-c3ccccc3)[nH]2)cc1,102.2
Cc1cc(O)c(C=Nc2cccc(F)c2)c(=O)o1,96.2
CCCN1C(=O)/C(=C2/C(=O)N(Cc3ccc(C)cc3)c3ccccc32)SC1=S,98.1
O=C1NC(=Nc2ccccc2)SC1Cc1ccccc1Cl (stereo unspecified),101.4
CN(C)CCN(C(=O)c1ccco1)c1nc2cc3c(cc2s1)OCO3,60.6*
FC(F)(F)c1cccc(N2CCNCC2)c1,100.0
O=C1CCCC2=C1C(c1ccc(Br)cc1)n1ncnc1N2 (stereo unspecified),97.2
O=C(Nc1nc(-c2csc(NC(=O)C3CC3)n2)cs1)C1CC1,99.5
O=C(COc1ccc(Cl)cc1Cl)OCCN1CCOCC1,97.7
CS(=O)(=O)Nc1ccc(Cl)cc1C(=O)c1ccccc1,99.5
CC1(C)CC2CC(C)(CN2CC(O)COc2ccc(F)cc2Cl)C1 (stereo unspecified),94.9
CN1C(=O)/C(=C\c2ccc(C(=O)O)cc2)c2cc(Br)ccc21,99.9
CN1CCc2c(c(NCCO)nc3n[nH]c(N)c23)C1,100.3
Cc1ccc(Cl)cc1NC(=S)N(C(C)C)C1CCN(C(C)C)CC1,97.8
CC(=O)Nc1ccc(NC(=O)C(C)OC(=O)C23CC4CC(CC(C4)C2)C3)cc1 (stereo unspecified),97.7
CCOC(=O)c1ccc(N=Cc2c(O)[nH]c(=O)[nH]c2=O)cc1,99.4
COC(=O)C(C)Oc1ccc2c(-c3ccccc3)cc(=O)oc2c1 (stereo unspecified),100.9
Cc1ccc(-c2nnc(Nc3ccc(O)cc3)c3ccccc23)cc1S(=O)(=O)N(C)C,99.8
N#CC(C#N)=C1CCN(c2ncc(C(F)(F)F)cc2Cl)CC1,92.7
COc1ccc(-c2c(C)c3cc(Cl)c(O)cc3oc2=O)cc1OC,105.8
OC(CNCc1ccccc1)C12CC3CC(CC(C3)C1)C2 (stereo unspecified),99.6
C=CCSc1nccc(-c2sc3ccc(Cl)cc3c2C)n1,95.2
O=c1ncn(Cc2cccs2)cc1-c1ccccc1,97.6
O=C(O)C(Cc1ccccc1)NC(=O)C(c1ccccc1)c1ccccc1 (stereo unspecified),100.4
O=C(NCc1noc2ccccc12)N1CCc2ccccc21,104.6
COc1cc2cc(OCc3c(F)cccc3Cl)nc(C)c2cc1OC,103.0
CCC(CC)NCc1oc2ccc(Cl)cc2c1-c1ccc(OC)cc1,100.0
Cc1ccc(NC(=O)CC2COc3ccccc3O2)cc1C (stereo unspecified),96.4
Cc1ccnc(NC(=O)c2sc3cc(Cl)ccc3c2Cl)c1,101.1
O=C(NCC(c1cccnc1)N1CCOCC1)C1CCCCC1 (stereo unspecified),103.1

Some of the entries above in another layout.
CSc1ccc(-c2nc(SCC(=O)NCc3ccco3)c(-c3ccccc3)[nH]2)cc1
  VACV E9 pol inh: 102.2

CC(=O)Nc1ccc(NC(=O)C(C)OC(=O)C23CC4CC(CC(C4)C2)C3)cc1 (stereo unspecified)
  VACV E9 pol inh: 97.7

O=C(O)CCCN1CC=C(c2ccccc2)CC1
  VACV E9 pol inh: 101.0

(next part)
molecule,VACV E9 pol inh
CCN1/C(=C2\C(=O)N(c3ccccc3)N=C2C)C=Cc2ccccc21,99.3
CCOC(=O)c1c(C)[nH]c(C(=O)CC#N)c1C,97.8
O=C(NCC1COc2ccccc2O1)c1ccc(Cl)cc1 (stereo unspecified),103.2
CN[C@H](CC(=O)O)C(=O)O,99.8
NC(=O)c1ccc(-n2ccnc2)cc1,74.3
Cc1ccc2nc(NC(=O)C3CCCN(S(=O)(=O)c4ccc5c(c4)oc(=O)n5C)C3)sc2c1 (stereo unspecified),92.6
O=C1S/C(=C\c2ccc(N3CCOCC3)o2)C(=O)N1c1ccccc1,100.4
Cc1nnc(-c2ccc(-c3ccccc3)cc2)o1,88.7
O=C1NC(=O)C(=Cc2cn(Cc3ccccc3)c3ccccc23)C(=O)N1,99.2
CC1CN(C2=NCCN2S(=O)(=O)c2cc(C(F)(F)F)cc(C(F)(F)F)c2)CC(C)O1 (stereo unspecified),99.9
CCN=C1S/C(=C/c2sccc2C)C(=O)N1CC,99.5
COc1cccc(N/C=C(\C#N)c2ccc(Cl)cc2)c1,86.7
O=C(NCc1ccc(Cl)cc1)C1c2ccccc2Oc2ccccc21,97.6
COc1ccc2oc(=O)c(-c3cn4ccccc4n3)cc2c1,103.5
O=C1C=CC(=O)C(c2ccc(Br)cc2)=C1,99.8
O=C(ON(Cc1c(F)cccc1Cl)Cc1c(F)cccc1Cl)c1ccc(Cl)cc1,90.8
O=C(O)CCC(=O)/C=C/c1ccccc1,95.8
COc1ccc(C2NNC(=S)S2)cc1 (stereo unspecified),99.8
C/C(=C\C#N)Nc1cccc(C(F)(F)F)c1,100.0
COc1ccc(C(=O)NCc2ccoc2C(=O)O)cc1,107.3
Cc1ccc(-n2c(O)c(C=NCC3CCCO3)c3ccccc3c2=O)cc1C (stereo unspecified),94.1
O=C(NC(=S)Nc1ccc(N2CCCCC2)cc1)c1ccccc1,99.3
Cc1ccc(Cl)cc1N1CCN(CCCNC(=O)c2cc3c(C)nc4ccccc4c3o2)CC1,81.5

Bioassay records deposited in PubChem by ICCB-Longwood Screening Facility, Harvard Medical School.

These rows are one share of the data; the hit share may differ from the screen's.
